Bioassay records from PubChem.
miR-21 reporter = miR-21 reporter, rising signal | 340,000 tested, under 10 active | Potency, µM (top dose mostly 38.3 µM), without a hit: at the highest dose reporter change, positive = more light | AID 2288 | HeLa miR-21 FLuc reporter, luciferase, 48 h; active = well fitted rising curve with a large enough effect; inconclusive = small, poorly fitted or top-dose-only effect; inactive = no such curve, though single readings can be large or run the other way;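 further: % of control where 0% means no effect; miR-21 action dims this reporter so a rising signal means less miR-21 action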
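Luminescence from a firefly luciferase reporter carrying a miR-21 binding site downstream, stably expressed under a CMV promoter in HeLa cells that make miR-21 endogenously, reports miRNA modulation after 48 h compound exposure up to approximately 40uM final.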
The depositor's hits bear a star; ? = inconclusive. The list is partial (hit frequency here may not be typical).

The first 2 compounds, to show the layout:
SMILES	miR-21 reporter
Cc1nc2cccnc2n1-c1cccc(C(=O)NCc2ccc(OC(C)C)cc2)c1	11.9%
CCC(=O)N1c2ccc(S(=O)(=O)CCC(=O)NCc3ccccc3OC)cc2CC1C (stereo not drawn)	-4.7%

Main list, from the start:
SMILES	miR-21 reporter
Cc1nc2cccnc2n1-c1cccc(C(=O)NCc2ccc(OC(C)C)cc2)c1	11.9%
CCC(=O)N1c2ccc(S(=O)(=O)CCC(=O)NCc3ccccc3OC)cc2CC1C (stereo not drawn)	-4.7%
Cc1ccc(NC(=O)CSc2nc(C)cc(C)c2C(=O)Nc2cccc(C)c2)cc1	-0.4%
O=C(NCc1ccccc1)c1ccc(NC(=O)c2nsc3ccccc23)cc1	-35.9%
CCc1ccc(NC(=O)C2CCCN(S(=O)(=O)c3cccc4nsnc34)C2)cc1 (stereo not drawn)	28.6%
COc1ccc(-n2cnc3cc(C(=O)NC4CCCCCC4)ccc32)cc1	-9.1%
CCOC(=O)c1ccc(NS(=O)(=O)c2cc3c(cc2C)n(C)c(=O)c(=O)n3C)cc1	-2.9%
CCCCN1C(=O)CN(C2CCCCCC2)C(=O)C1c1ccc(OCCC)c(OC)c1 (stereo not drawn)	-13.0%
COc1ccc(N2CCN(S(=O)(=O)CCNC(=O)c3c(F)cccc3Cl)CC2)cc1	-9.9%
CCc1ccc(CNC(=O)c2sc3nc[nH]c(=O)c3c2C)cc1	-13.1%
Cc1ccc(-n2ncc3c(NCCCN4CCOCC4)ncnc32)cc1Cl	-26.4%
Cc1ccc(CNc2nc3ccccc3c3nc(-c4cccc(C)c4)nn23)cc1	-26.3%
CC1CCC(NC(=O)Cn2ncc3c4ccccc4n(Cc4ccc(Cl)cc4)c3c2=O)CC1 (stereo not drawn)	0.4%
COc1cccc(CNC(=O)c2cc(=O)[nH]c3ccc(S(=O)(=O)N4CCCC4)cc23)c1	-4.8%
Cc1ccc(S(=O)(=O)NCCc2csc3nc(-c4ccccc4C)nn23)cc1	1.1%
O=C(Nc1ccc(F)cc1F)c1ccc2c(c1)CCN2S(=O)(=O)c1ccc(Cl)cc1	12.4%
COc1ccccc1NC(=O)C1=C(C)Nc2nc(SCc3ccccc3)nn2C1c1cccnc1 (stereo not drawn)	3.3%
COc1cccc(N2CCN(c3ncnc4onc(-c5ccc(F)cc5)c34)CC2)c1	-2.0%
CN(C(=O)c1ccc2c(Cl)c3c(nc2c1)CCC3)c1ccccc1F	-40.7%
COc1ccc(C(=O)Nc2nnc(CC(=O)N/N=C/c3ccc(O)cc3O)s2)cc1	-14.3%

In the list so far, 2 contain two or more sulfur atoms.
SMILES	miR-21 reporter
CCc1ccc(NC(=O)C2CCCN(S(=O)(=O)c3cccc4nsnc34)C2)cc1 (stereo not drawn)	28.6%
Cc1ccc(S(=O)(=O)NCCc2csc3nc(-c4ccccc4C)nn23)cc1	1.1%

The results go on.
SMILES	miR-21 reporter
Cc1ccc(NC(=O)Cn2nc(C)n3cccc3c2=O)c(C)c1	-39.4%
CCOC(=O)c1ccc(NC(=O)Nc2ccc3snnc3c2)cc1	1.8%
COCCNC(=O)Cn1c(=O)n(-c2ccc(C)c(C)c2)c(=O)c2c3c(sc21)CCCCC3	-0.7%
Cc1ccc2sc(N(Cc3cccnc3)C(=O)Cc3ccccc3)nc2c1C	-0.7%
CC(=O)Nc1ccc(N(C(=O)Cn2nnc3ccccc32)C(C(=O)NCc2ccccc2)c2ccc(C)cc2)cc1 (stereo not drawn)	-17.5%
Cc1ccc2c(c1)C(c1ccccc1)N(C(=O)COc1ccc(Cl)cc1Cl)CC(=O)N2 (stereo not drawn)	?
COc1ccc(S(=O)(=O)N2CCCCC2)cc1C(=O)Nc1cccc(C(F)(F)F)c1	-8.5%
CCOc1ccc(NC(=O)Cn2cc(S(=O)(=O)NC)c(S(=O)(=O)NC)c2)cc1	-1.9%
CCOC(=O)c1cc2c(=O)n3ccccc3nc2n(CC2CCCO2)c1=NC(=O)c1ccccc1C (stereo not drawn)	-2.6%
CC(C)CCn1c(=O)c2sccc2n2c(CCCC(=O)Nc3ccc(C(C)C)cc3)nnc12	-3.0%
CCOc1ccc(N(C(C)C(=O)NCCSc2ccc(C)cc2)S(C)(=O)=O)cc1 (stereo not drawn)	2.2%
CCOC(=O)N1CCc2c(sc3c2c(=O)n(Cc2ccccc2)c(=O)n3Cc2c(F)cccc2Cl)C1	-0.7%
Cc1cc(C)cc(NC(=O)C(Cc2ccccc2)N2Cc3ccccc3C2=O)c1 (stereo not drawn)	6.8%
COc1ccc2[nH]cc(CCNC(=O)c3cnn(-c4ccccc4Cl)c3C3CCN(C(=O)OC(C)(C)C)CC3)c2c1	23.4%
O=C(NCc1cccnc1)C(=O)NCC(c1cccnc1)N1CCN(c2ccc(F)cc2)CC1 (stereo not drawn)	-1.2%
COC(=O)c1cccc(Nc2c(-c3ccc(OC)cc3)nc3nc[nH]n23)c1	-42.4%
Cc1nn2c(C)c(C(=O)NC(C)c3ccccc3)cnc2c1-c1ccc(F)cc1 (stereo not drawn)	-9.0%
Cc1cc(C)c(S(=O)(=O)Nc2cc(-c3cn4ccccc4n3)ccc2C)cc1C	22.1%
O=C(O)c1cccc(NC(=O)c2cccc(S(=O)(=O)Nc3cccc(C(=O)O)c3)c2)c1	1.1%
CCOc1ccc(NC(=O)c2c(NC(=O)c3ccco3)sc3c2CCC(C(C)(C)C)C3)cc1 (stereo not drawn)	-6.5%
COc1cc(C(=O)Nc2ccccc2OCc2cc(=O)n3c(C)csc3n2)cc(OC)c1OC	-5.5%
Cc1noc2ncnc(NCc3ccccc3Cl)c12	17.9%
CCc1ccc(NC(=O)CCCc2nnc3n(C(C)CC)c(=O)c4sccc4n23)cc1 (stereo not drawn)	4.4%
Cc1cccc(-c2nc(C)c(CCNC(=O)C(=O)Nc3c(C)cc(C)cc3C)s2)c1	-1.4%
COc1ccc(-n2c(=O)c3c4c(sc3n(Cc3ccccc3)c2=O)CCC4)c(OC)c1	2.0%
CCCCC(CC)CNC(=O)CCCCCn1c(=O)[nH]c2ccsc2c1=O (stereo not drawn)	17.7%
CCN(C(=O)CCS(=O)(=O)c1cc(Br)cc2c1N(C(=O)C1CC1)CC2)c1cccc(C)c1	-2.6%
Cn1c2ccccc2c2cnn(CC(=O)NCCCN3CCCCC3)c(=O)c21	-1.4%
Cc1nc(-c2ccc(F)cc2)sc1CCNC(=O)c1ccccc1	-17.5%
Cc1nc(C)c(-c2ccc(SCC(=O)Nc3ccc(Br)cc3)nn2)s1	22.9%
Cn1ncc2c(N3CCN(c4cccc(Cl)c4)CC3)ncnc21	-3.0%
CC(C)(C)c1ccc(OCC(=O)NCC2(N3CCOCC3)CCCCC2)cc1	?
CCOc1ccccc1C(=O)Nc1c(C(=O)Nc2ccc(F)cc2)oc2ccccc12	22.0%
COc1ccc(NCc2cc3cc4c(cc3n(CC(=O)Nc3ccc(F)cc3F)c2=O)OCO4)cc1	-11.9%
CN(C)c1ccc(CN(Cc2ccco2)C(=O)COc2ccc(F)cc2)cc1	23.4%
O=C(Nc1nc2ccc(Cl)cc2s1)c1cc(=O)c2ccccc2o1	-26.5%
Cc1ccc(-n2ncc(C(=O)NCCCN3CCN(C)CC3)c2C2CCN(C(=O)OC(C)(C)C)CC2)cc1	3.8%
CCc1nn2c(=O)cc(COc3ccc(/C=C(\C#N)C(=O)Nc4ccc(F)cc4)cc3OC)nc2s1	-6.1%
CN(C(=O)Cn1nc(Cc2cccnc2)c2ccccc2c1=O)c1cccc(C(F)(F)F)c1	-0.9%
Cc1ccc(NC(=O)CSc2nc3c([nH]c4ccccc43)c(=O)n2-c2ccccc2)c(C)c1	0.8%
Cc1ccccc1NC(=O)CN(c1ccc(Cl)cc1Cl)S(=O)(=O)c1ccccc1	11.1%
Cc1ccc(-n2cc(C(=O)Oc3ccc(F)cc3)c3ccccc3c2=O)cc1	-6.1%
O=C(O)c1ccc(-c2ccc(-c3ccccc3)cc2)s1	-38.5%
COc1ccccc1CNS(=O)(=O)c1cc(Br)cc2c1N(C(C)=O)C(C)C2 (stereo not drawn)	18.0%
COc1cc(C(=O)N2CC(=O)Nc3ccc(C)cc3C2c2ccc(F)cc2)cc(OC)c1OC (stereo not drawn)	22.3%
Cc1cc(C)c2c(n1)SCCN2C(=O)Nc1ccc(C(=O)Nc2ccc(C(C)C)cc2)cc1	3.0%
Cc1ccccc1-c1ccnc2c(-c3ccc(F)cc3)c(C)nn12	?
Cc1ccc(S(=O)(=O)Nc2cc3c(cc2NCc2ccccc2)n(C)c(=O)n3C)cc1	-27.4%
Cc1cccc(CNC(=O)c2ccc(NC(=O)N3CC(C)Sc4ccccc43)cc2)c1 (stereo not drawn)	-3.0%
COc1ccc(CNC(=O)C2CCN(c3nnc(C)c4c(C)n(-c5ccc(C)cc5)nc34)CC2)cc1	1.6%
COc1ccc(Cl)cc1NC(=O)c1cc2nc(-c3ccc(C)cc3)cc(C(F)(F)F)n2n1	-0.2%
CCOC(=O)CCN(c1ccccc1)S(=O)(=O)c1ccc2[nH]c(=O)ccc2c1	4.1%
COc1ccccc1NC(=O)C1=C(C)Nc2c(C(=O)Nc3ccc(F)cc3)cnn2C1c1ccc(Cl)cc1 (stereo not drawn)	26.4%
CCc1ccc(CNC(=O)Cc2c(C(=O)O)c(C)cn2C)cc1	-0.2%
COc1ccc(C)cc1NC(=O)N1CCN(c2nnc(C)c3c(C)n(-c4ccccc4)nc23)CC1	-4.8%
COc1ccc(-c2cc3nc(C)c(CCC(=O)Nc4ccccc4C(C)=O)c(C)n3n2)c(OC)c1	21.8%
Cc1ccc(NC(=O)c2ccc(Cn3cc(Cl)cn3)o2)c(C)c1	-5.3%
CCOc1cc(-c2ccc(OC(=O)c3ccc(C)cc3)c(OC)c2)cc(=O)c2c(C)oc(C)c12	-11.3%
Cc1ccc(CSc2oc(-c3ccco3)nc2S(=O)(=O)c2ccc(Cl)cc2)cc1	2.7%
O=C(NCc1ccc(Cl)cc1)c1cc2ccc3cccnc3c2[nH]1	-19.8%

Other records
SMILES	miR-21 reporter
COc1ccc2c(c1)Cc1sc(NC(=O)c3ccccc3C)nc1-2	-29.7%
COc1ccccc1CNC(=O)CCC(=O)N1CC2CCCN2c2ccccc21 (stereo not drawn)	3.9%
Cc1cc(C)c2oc(-c3ccc(NC(=O)c4cc(Br)ccc4Cl)cc3)nc2c1	-5.6%
COc1ccc(S(=O)(=O)Nc2ccc3c(c2)sc(=O)n3C)cc1Cl	28.9%
CCOC(=O)N1CCc2c(sc3c2c(=O)n(CCc2ccccc2)c(=O)n3CC(=O)Nc2cccc(C)c2)C1	0.7%
O=c1c2cc3c(nc2ncn1Cc1ccc(Cl)cc1)CCCC3	-11.8%
Cc1ccn2c(=O)c(C(=O)NCCc3ccccc3)c(O)nc2c1	-2.2%
O=C(CCC(=O)N1CCSc2ccccc21)NCc1ccccc1Cl	1.0%
CCOc1ccccc1NC(=O)c1c(NC(=O)c2cccc(C)c2)sc2c1CCCC2	-2.2%
CCOC(=O)c1cnc2c(C)c(Cl)ccc2c1Nc1ccc(C)cc1C	-6.4%
CS(=O)(=O)c1ncc(Cl)c(C(=O)N(Cc2ccc(Cl)cc2)Cc2ccco2)n1	?
COc1ccc(OC)c(CCNC(=O)CN2C(=O)COc3ccc(S(=O)(=O)N4CCC(C)CC4)cc32)c1	-12.3%
CCOCCn1ccc2c(OCC(=O)Nc3cccc(F)c3)cccc2c1=O	-3.2%
CC1CCN(C(=O)CSc2c(C(C)C)cnc3c2c(=O)n(C)c(=O)n3C)CC1	1.9%
Cc1ccsc1CN(C(=O)c1oc2ccc(F)cc2c1C)C1CCS(=O)(=O)C1 (stereo not drawn)	0.4%
Cc1cc(NC(=O)c2cc(-c3ccc(Cl)c(Cl)c3)on2)n(-c2ccccc2)n1	1.0%
Cc1ccc(CNC(=O)c2ccc3c(c2)N(Cc2ccccc2F)C(=O)c2ccccc2S3(=O)=O)cc1	1.5%
Cn1c(SCC(=O)Nc2nc3ccccc3s2)ncc(C(=O)Nc2ccc(Cl)cc2)c1=O	-22.5%
COc1ccc(CCNC(=O)c2c(C)oc3ncn(CC(C)C)c(=O)c23)c(OC)c1	0.0%
COc1ccccc1OCc1nc(-c2cccc(C)c2)no1	-67.4%

4 structures already listed, ordered by heavy-atom count, smallest number first.
SMILES	miR-21 reporter
COc1ccc(S(=O)(=O)Nc2ccc3c(c2)sc(=O)n3C)cc1Cl	28.9%
CCOC(=O)c1cnc2c(C)c(Cl)ccc2c1Nc1ccc(C)cc1C	-6.4%
CCOCCn1ccc2c(OCC(=O)Nc3cccc(F)c3)cccc2c1=O	-3.2%
COc1ccc(OC)c(CCNC(=O)CN2C(=O)COc3ccc(S(=O)(=O)N4CCC(C)CC4)cc32)c1	-12.3%

Next structures follow:
SMILES	miR-21 reporter
O=C(NCC(c1ccco1)S(=O)(=O)c1cccs1)c1c(F)cccc1F (stereo not drawn)	-11.9%
CC(C)OCCCNC(=O)C(=O)Nc1ccc2nc3n(c(=O)c2c1)CCCCC3	-14.1%
COc1ccc(CCNC(=O)CSC2=Nc3ccccc3C3=NC(CCC(=O)NCc4ccccc4)C(=O)N23)cc1OC (stereo not drawn)	0.2%
CCc1cc2c(cc3c(=O)n(CC(=O)NC4CCCCC4)nc(CC)n32)s1	-5.0%
Cn1c(=O)c(=O)n(C)c2cc(S(=O)(=O)Nc3ccc(Cl)c(C(F)(F)F)c3)ccc21	-14.5%
CN(Cc1ccccc1)c1ncnc2c1nnn2C	-1.0%
CCCN1CCN(C(=O)Cn2c(-c3cccs3)cc3ccccc32)CC1	-10.0%
COc1ccc(S(=O)(=O)N2CCC(c3ccncc3)CC2)cc1OC	10.1%
